Source: PubChem
SIAE inh – human SIAE inhibitors, primary screen, biochemical, fluorescence polarization, FP-Rh probe, 1536-well HTS | inhibition, % at 9.66 µM | hit rate 0.69% among 370,000 | Sialate O-acetylesterase (Homo sapiens), Q9HAT2 | SIAE FP-Rh probe binding;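 active = inhibition above a cutoff: mean of compounds within the control limits plus 3 SD of those, cut at about 17% in these data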;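 also: 0% = plate median of compound wells and 100% = probe without SIAE protein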
NR1D1 modulator – modulators of Rev-erb alpha DNA binding, primary screen, biochemical, FITC-DNA, fluorescence polarization, uHTS; Nuclear receptor subfamily 1 group D member 1 (Homo sapiens), P20393; AID 1259318, 2017; hit rate 0.79% among 370,000; activity, % at 10 µM; Rev-erbα–FITC-DNA binding, 90 min;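 active = activity above about 14%, limit read from the data; passing the limit was not always enough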;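 also: 0% = DMSO wells with 35 nM protein and 100% = DMSO wells with 750 nM protein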
HTRA1 inhibitor – HTRA1 serine protease inhibitors, primary screen, biochemical, fluorescence polarization, HTS; Q92743; recombinant HTRA1, FP-rhodamine activity-based probe; hit rate 0.5% among 340,000; inhibition, % at 5.96 µM; in the data active = inhibition above about 36%;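 also: 0% = enzyme with DMSO and 100% = wells lacking enzyme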
Target sequence (Q92743 whole entry, looked up): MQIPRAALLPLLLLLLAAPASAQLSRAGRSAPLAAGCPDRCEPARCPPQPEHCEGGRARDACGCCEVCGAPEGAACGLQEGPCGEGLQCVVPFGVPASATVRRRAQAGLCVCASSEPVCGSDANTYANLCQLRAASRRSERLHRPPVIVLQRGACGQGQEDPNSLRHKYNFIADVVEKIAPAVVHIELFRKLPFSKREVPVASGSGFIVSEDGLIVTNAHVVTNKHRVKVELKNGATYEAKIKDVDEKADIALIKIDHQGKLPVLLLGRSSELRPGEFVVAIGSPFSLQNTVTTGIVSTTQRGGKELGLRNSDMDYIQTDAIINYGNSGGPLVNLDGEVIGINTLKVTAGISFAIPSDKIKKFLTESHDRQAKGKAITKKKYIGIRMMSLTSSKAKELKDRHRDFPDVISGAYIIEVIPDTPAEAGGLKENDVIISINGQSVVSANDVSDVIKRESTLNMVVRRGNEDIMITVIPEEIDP
TDP2 inh – human TDP2 enzyme inhibitors, primary screen, biochemical, epi absorbance, recombinant enzyme; Tyrosyl-DNA phosphodiesterase 2 (Homo sapiens), O95551; T5PNP hydrolysis, p-nitrophenol absorbance 415 nm; inhibition, % at 12.8 µM; hit rate 0.34% among 370,000;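 active = inhibition above the mean of all tested compounds plus 3 SD, set per campaign, cut at about 25% in these data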;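 also: 0% = DMSO with enzyme and 100% = buffer with substrate but no TDP2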
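Test system: human TDP2 enzyme; Input: 120 nM TDP2 per well; Buffer or medium: Mg2+-containing Tris-HCl buffer, pH 7.5; Reagent: 5 mM T5PNP; Dosing: 12.8 µM single point, 1% DMSO; Incubation: reaction 2 h, 37 °C; Detection: p-Nitrophenol epi absorbance; Read-out: % inhibition relative to enzyme-containing and enzyme-free wells; Replicates: single well per compound.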
mABHD4 FP – ABHD4 inhibitors, primary screen, biochemical, fluorescence polarization, mouse | (Lyso)-N-acylphosphatidylethanolamine lipase (Mus musculus), Q8VD66 | purified mABHD4, FP-Rh probe fluorescence polarization | hit rate 0.54% among 370,000 | inhibition, % at 8.92 µM;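 active = inhibition exceeding the mean over every tested compound plus 3 SD, cut at about 30% in these data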;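 also: 0% = plate median of compound wells and 100% = S159A mutant with DMSO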
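Doses – 8.92 µM, single dose · Material – wild-type mouse ABHD4 protein · Replication – single well per compound (singlicate) · Measure – percent inhibition of probe binding, normalized to plate controls · Schedule – 45 min compound pre-incubation plus 60 min probe step, 25 °C · Detection – fluorescence polarization with parallel and perpendicular emission, 525/598 nm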
Starred values were filed as active, the others as inactive. A portion of the library; count on the stated rates, not on these rows.

cpd	SMILES	SIAE inh	NR1D1 modulator	HTRA1 inhibitor
1	O=C(Cn1c(C(=O)c2ccccc2)nc2ccccc21)c1ccc(Cl)cc1	-9	7	-10
2	c1ccc(CN2CCC3CC2c2cc(N4CCOCC4)ccc23)cc1 (centres undefined)	5	7	5
3	C=C(CN(C)C)C(=O)c1ccc2c(c1)OCO2	3	-4	1
4	O=c1c(Cl)c(O)ccn1C1OC(CO)C(O)C1O (centres undefined)	-4	-8	1
5	O=C1NC[C@H](c2ccccc2)OC(=O)[C@@H](Cc2ccc(F)cc2)CC/C=C/C[C@@H]1CC(=O)N(CCO)Cc1ccccc1	-5	-1	-53
6	C#Cc1cccc(N2C(=O)C3C4C=CC(C3C2=O)C2C(=O)N(c3cccc(C#C)c3)C(=O)C42)c1 (centres undefined)	-18	-4	-5
7	O=C(N/N=C\c1ccc(Sc2ccccn2)o1)c1cccc(F)c1	0	0	-4
8	CC(N)C(=O)NC(CO)C(O)C(N)C=O (centres undefined)	3	1	7
9	COc1ccc(S(=O)(=O)n2c(C)nc3ccccc32)cc1C	-1	-3	10
10	CC(=O)c1cn(S(=O)(=O)c2ccccc2)c2ccccc12	2	1	-3
11	O=C(/C=C/c1ccc(O)c(O)c1)OC(Cc1ccc(O)c(O)c1)C(=O)O (centres undefined)	7	3	9

cpd	TDP2 inh	mABHD4 FP
1	-1	-8
2	9	-1
3	9	1
4	3	2
5	-5	-14
6	0	-2
7	-1	-23
8	6	-6
9	0	-8
10	1	-4
11	7	28

Some of the entries so far, bar-delimited.
item | Structure | SIAE inh | NR1D1 modulator | HTRA1 inhibitor | TDP2 inh | mABHD4 FP
3 | C=C(CN(C)C)C(=O)c1ccc2c(c1)OCO2 | 3 | -4 | 1 | 9 | 1
4 | O=c1c(Cl)c(O)ccn1C1OC(CO)C(O)C1O (centres undefined) | -4 | -8 | 1 | 3 | 2
5 | O=C1NC[C@H](c2ccccc2)OC(=O)[C@@H](Cc2ccc(F)cc2)CC/C=C/C[C@@H]1CC(=O)N(CCO)Cc1ccccc1 | -5 | -1 | -53 | -5 | -14
6 | C#Cc1cccc(N2C(=O)C3C4C=CC(C3C2=O)C2C(=O)N(c3cccc(C#C)c3)C(=O)C42)c1 (centres undefined) | -18 | -4 | -5 | 0 | -2
7 | O=C(N/N=C\c1ccc(Sc2ccccn2)o1)c1cccc(F)c1 | 0 | 0 | -4 | -1 | -23

Structural class: the entries above with fluorine (two)
cpd	SMILES	SIAE inh	NR1D1 modulator	HTRA1 inhibitor
5	O=C1NC[C@H](c2ccccc2)OC(=O)[C@@H](Cc2ccc(F)cc2)CC/C=C/C[C@@H]1CC(=O)N(CCO)Cc1ccccc1	-5	-1	-53
7	O=C(N/N=C\c1ccc(Sc2ccccn2)o1)c1cccc(F)c1	0	0	-4

cpd	TDP2 inh	mABHD4 FP
5	-5	-14
7	-1	-23

As entered above.
HTRA1 inhibitor with compound 1 reads -10
NR1D1 modulator with compound 5 reads -1
